A647 fluor: qHTS Assay for Spectroscopic Profiling in A647 Spectral Region; AID 592, 2007; max dye-equivalent concentration, M; 59,000 tested, under 10 active; Compound fluorescence, A647 channel (570/671 nm), Tris buffer; active means above 1 µM dye equivalent; inconclusive means 0.1 to 1 µM; inactive means 0.1 µM or less;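 further: values scaled relative to a standard on each plate; highest value over a series up to 38 µM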
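Compound fluorescence was measured in 100 mM Tris buffer, pH 8.0, after 15 min at room temperature, using 570 nm excitation and 671 nm emission filters. Signal was normalized to a per-plate Alexa 647 standard curve and expressed as dye-equivalent concentration at each compound concentration.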
A488 autofl: qHTS Assay for Spectroscopic Profiling in A488 Spectral Region. compound autofluorescence, A488 spectral region, dye equivalency; hits give high values. max dye equivalency, M. 59,000 compounds, 0.1% hits. AID 591, 2007; active = above 10 nM dye equivalent; inconclusive = 1 to 10 nM; inactive = 1 nM or less; about half of its hits are not listed in these tables;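 further: highest value over a series up to 38 µM; compound alone in buffer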
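Compounds pin-transferred into 100 mM Tris buffer, pH 8.0, incubated 15 min at room temperature, then imaged with 480 nm excitation/540 nm emission filters. Fluorescence converted to Alexa 488 dye-equivalent concentration via an on-plate six-point A488 standard curve.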
AID923: qHTS Assay for Allosteric/Competitive Inhibitors of Caspase-1: Spectroscopic Profiling in AFC Spectral Region | compound fluorescence, AFC spectral region (405/520 nm); almost no hit is shown here | AID 923, 2007 | Potency, µM (top dose mostly 57.5 µM), for the others: at the top dose fluorescence increase, usual class: activators | 75,000 compounds, 1.1% hits; active means well fitted activation curve with a large enough effect; inconclusive means small, poorly fitted or top-dose-only effect;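 further: potency means the concentration at half of the fitted maximal effect; 0% is about no effect; scaled to a free AFC standard on each plate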
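Compound autofluorescence profiled at 405 nm ex/520 nm em during kinetic caspase 1 run (50 nM enzyme, 5 uM Ac-WEHD-AFC, HEPES pH 7.5, 10 mM DTT). Titration up to 57 uM; baseline from regression intercept, normalized to AFC standard curve.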
Resorufin fluor: qHTS Assay for Spectroscopic Profiling in Resorufin Spectral Region. Compound fluorescence, resorufin region 547/598 nm, buffer; hits give high values. max dye-equivalent concentration, M. 59,000 compounds, 0.04% hits; active = above 10 nM dye equivalent; inconclusive = 1 to 10 nM; inactive = 1 nM or less; a few of its hits are not listed in these tables; further: highest value over a series up to 38 µM
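Compounds in 100 mM Tris buffer, pH 8.0, incubated 15 min at room temperature, then read with 547 nm excitation and 598 nm emission filters. Fluorescence was converted to dye-equivalent concentration using an on-plate six-point resorufin standard curve.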
TSHR ag: qHTS Assay for Agonists of the Thyroid Stimulating Hormone Receptor. Thyrotropin receptor (Homo sapiens), P16473. HEK293-CNG-TSHR cells (CNG channel as cAMP sensor), membrane potential dye, cAMP. Potency, µM (series often up to 57.1 µM), inactives show top-dose activation, most hits filed as activators. 73,000 compounds, 0.48% hits. AID 926, 2007; active = well fitted activation curve of enough size with the parental cells flat; inconclusive = any curve in the parental cells; inactive = parental cells flat and receptor cells flat or falling; further: potency means the concentration at half of the fitted maximal effect; % of control where 0% means no effect; weak receptor curves with flat parental cells got no call and are not listed
Target sequence (P16473 whole entry, looked up): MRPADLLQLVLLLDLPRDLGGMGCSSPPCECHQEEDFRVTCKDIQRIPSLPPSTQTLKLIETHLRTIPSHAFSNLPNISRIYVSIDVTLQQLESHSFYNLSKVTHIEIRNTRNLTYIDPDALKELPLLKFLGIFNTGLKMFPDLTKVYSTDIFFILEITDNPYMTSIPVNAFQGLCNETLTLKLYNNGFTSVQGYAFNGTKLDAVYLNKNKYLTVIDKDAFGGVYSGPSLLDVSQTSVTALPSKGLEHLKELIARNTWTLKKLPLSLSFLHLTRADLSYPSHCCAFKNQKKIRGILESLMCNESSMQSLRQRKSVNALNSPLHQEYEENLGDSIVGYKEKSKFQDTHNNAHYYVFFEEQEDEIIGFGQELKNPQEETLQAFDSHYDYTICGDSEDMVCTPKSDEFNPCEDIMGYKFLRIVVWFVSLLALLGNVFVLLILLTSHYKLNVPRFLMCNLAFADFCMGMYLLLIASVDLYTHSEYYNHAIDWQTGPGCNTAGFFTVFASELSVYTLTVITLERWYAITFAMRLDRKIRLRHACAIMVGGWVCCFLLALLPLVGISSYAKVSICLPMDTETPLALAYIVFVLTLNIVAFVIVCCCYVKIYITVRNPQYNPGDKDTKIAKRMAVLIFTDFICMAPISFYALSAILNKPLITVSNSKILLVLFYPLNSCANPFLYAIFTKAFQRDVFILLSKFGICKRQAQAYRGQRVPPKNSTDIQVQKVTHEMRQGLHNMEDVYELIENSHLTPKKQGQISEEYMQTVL
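HEK 293 cells stably expressing TSHR and a cAMP-gated CNG channel; parental CNG-only cells as counterscreen. Cells preloaded 60 min with membrane potential dye plus 100 uM RO 20-1724, then compound 30 min; fluorescence read at 590 nm.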
An asterisk follows results filed as active; i = inactive; ? = inconclusive; . = not tested or not shown; [ ] = dose if it differs, or a comment.

SMILES	A647 fluor	A488 autofl	AID923	Resorufin fluor	TSHR ag
CCOC(=O)N1CCC(NS(=O)(=O)c2cc(Br)cnc2N)CC1	1e-09	i	-1.2%	i	-5%
Cc1ccc(NC(=O)CN(C)S(=O)(=O)c2cccc3nsnc23)cc1	1e-09	i	-0.2%	i	-4%
COc1ccc(C)cc1S(=O)(=O)N1CCC(C)CC1	4e-09	i	0.2%	i	?
CCOC(=O)N1CCN(C(=O)c2c(-c3ccccc3)noc2C)CC1	.	.	-0.1%	.	6%
CC(C)(C#N)NC(=O)c1ccco1	4.1e-09	i	1.3%	i	2%
CCOc1ccc(NC(=O)CN(C)c2nnnn2-c2ccccc2)cc1OCC	2.7e-08	i	-0.5%	i	2%
CCc1nnc(NC(=O)CSc2nnnn2-c2cccc(C(=O)OC)c2)s1	2e-08	i	-0.7%	i	-3%
CCOC(=O)C1CCN(C(=O)Nc2ccc3oc(C)nc3c2)CC1	2.8e-08	i	0.5%	i	-1%
Cc1cc(=O)n2[nH]c(C)c(-c3ccc(Cl)cc3)c2n1	.	.	-0.9%	.	3%
COc1ccc(S(=O)(=O)N2CCOCC2)cc1C(=O)Nc1cc(C)on1	8.5e-09	i	1.4%	i	12%
CCc1nnc(NC(=O)C2CCC2)s1	3e-08	i	-1.9%	i	-4%
CSc1nc(N2CCOCC2)c2ccccc2n1	1e-09	i	-0.2%	i	11%
Cc1nc(Sc2cccn2C)c(C(F)(F)F)c(=O)[nH]1	2.2e-08	i	.	i	.
O=C(O)c1oc2ccccc2c1CSc1ccccn1	2.7e-08	i	0.9%	i	?
O=C(N/N=C\c1ccccc1O)c1ccccc1O	.	.	2.1%	.	15%
CC1CN(C(=O)C(C)Sc2nc3ccccc3s2)CC(C)O1 (stereo not drawn)	1e-09	i	1.6%	i	6%
CCCCCc1c(C)nc(Nc2ccc(F)cc2)[nH]c1=O	1e-09	i	0.2%	i	-15%
CN(C)c1ccc(CNC(=O)C2CCN(S(=O)(=O)c3ccc4c(c3)CCC(=O)N4)CC2)cc1	.	.	2.8%	.	-12%
O=c1cnc2cnc(Nc3ccccc3)nc2n1CCc1ccccc1	8.1e-09	i	18%	i	13%
Cc1nc(N)sc1-c1csc(Nc2ccccc2)n1	3.8e-08	i	-0.3%	i	-5%
CC(=O)C(Sc1nc(N2CCOCC2)nc(N2CCOCC2)n1)C(=O)Nc1ccccc1 (stereo not drawn)	1.7e-08	i	12%	i	2%
CCCCC(CCC(=O)Nc1ccc(C(=O)OCC)cc1)C(=O)O (stereo not drawn)	1.4e-08	i	.	i	.
COc1cccc(NC(=O)CSc2nc3c(c(-c4ccco4)c2C#N)CCCC3)c1	2e-09	i	0.4%	i	1%
Cn1c(NC(=O)C2c3ccccc3Oc3ccccc32)cc(=O)n(C)c1=O	4.9e-09	i	-1.1%	i	.
CCOc1ccc(N2CC(C(=O)NCCCN3CCOCC3)CC2=O)cc1 (stereo not drawn)	1.5e-08	i	3.6%	i	-1%
Cc1cc(NC(=O)c2c(F)c(F)c(F)c(F)c2F)no1	1.5e-09	i	1.0%	i	.
CC/C=C\C/C=C\C/C=C\CCCCCCCC(=O)O	.	.	0.3%	.	4%
NC(=O)c1cc(-c2ccccc2)sc1NC(=O)Cc1ccc(S(=O)(=O)N2CCOCC2)s1	1e-09	i	2.8%	i	-12%
c1ccc(-c2nnc3sc(CN4CCc5ccccc54)cn23)cc1	1.5e-09	i	0.6%	i	12%
O=C(COc1cccc(C(F)(F)F)c1)NCCCN1CCCC1=O	1.2e-09	i	1.5%	i	14%
CCOc1ccc2[nH]c(=O)c(C(c3nnnn3CC3CCCO3)N3CCc4ccccc4C3)cc2c1 (stereo not drawn)	5.6e-09	i	7.2%	i	8%
CCOC(=O)c1ccc(NC(=O)C23CCC(C)(C(=O)O2)C3(C)C)cc1 (stereo not drawn)	.	.	3.2%	.	25%[11.4 µM]
CCOc1ccc(-c2nc(-c3ccccc3C)no2)cc1	2.9e-08	i	-1.6%	i	9%
Cn1c(=O)c2c(nc(Oc3ccc4c(c3)OCO4)n2Cc2ccc(Br)cc2)n(C)c1=O	1e-09	i	.	i	.
Cc1cc(NC(=O)c2ccccc2)ncc1NC(=O)c1ccco1	4.6e-08	i	2.0%	i	-3%
CC(C)=CCC1=C(OCC(=O)O)C(=O)c2ccccc2C1=O	1e-09	i	8.9%[11.5 µM]	i	4%[11.4 µM]
COc1ccccc1N1CCN(c2nc(N)c(C#N)c(CC#N)c2C#N)CC1	9.5e-09	i	6.1%	i	8%
Cc1nc2ccc(S(=O)(=O)NCC(=O)N3CCOCC3)cc2s1	1e-09	i	-1.0%	i	2%[11.4 µM]
CCC(=O)Nc1ccccc1-c1nnn(CC(=O)N2c3ccccc3CC2C)n1 (stereo not drawn)	1e-09	i	0.0%	i	24%
CCOC(=O)COc1ccc(S(=O)(=O)N2CCN(c3ccccc3F)CC2)cc1	2.3e-08	i	-1.5%	i	?
CCOc1ccc(C(=O)NCCCN(CC)CC)cc1	.	.	0.2%	.	0%
Cn1c(=O)oc2cc(S(=O)(=O)NCCC(=O)N3CCc4ccccc4C3)ccc21	1.8e-08	i	-1.2%	i	1%
Cc1ccc(C(C)(C)C)cc1	.	.	0.0%	.	?
CS(=O)(=O)N(CC(=O)NC1CCCCCC1)Cc1ccccc1	1e-09	i	-5.8%	i	29%
Cc1sc2ncn(CCC(=O)O)c(=O)c2c1C	1.3e-09	i	0.2%	i	3%
Cc1ccc(OCc2nnc(SCCN3CCOCC3)n2C)cc1	2e-09	i	-0.2%	i	1%
COc1ccc(OC)c(NC(=O)CSc2nnc(Cn3c(=O)sc4ccccc43)n2C)c1	.	.	2.9%	.	2%
CCOC(=O)/C(C(N)=NCCO)=C(/O)c1ccccc1	6.2e-08	i	-1.9%	i	1%
NC(=O)c1c(NC(=O)CN2CCCC2)sc2c1CCCC2	1e-09	i	2.0%	i	?
Cc1cc(=O)oc(C)c1C(=O)NCCCN1C(C)CCCC1C (stereo not drawn)	9.7e-09	i	8.0%	i	-1%
Cc1nnc(SCC(=O)NC(=O)NC(C)(C)C)n1N	1e-09	i	-0.1%	i	-2%
CCC(=O)Nc1ccc(NC(=O)CSc2nnnn2CC)cc1C	1.5e-08	i	-0.9%	i	3%
CC12CCC(c3c(C(=O)Nc4nccs4)nn(-c4ccccc4)c31)C2(C)C (stereo not drawn)	1.4e-08	i	1.0%	i	-2%
CCCCn1c(SCc2cccnc2)nc2c1c(=O)n(C)c(=O)n2C	4.8e-09	i	0.0%	i	-46%[inhibitor]
CCCCOC(=O)C(C)Nc1n[nH]c(=O)[nH]c1=O (stereo not drawn)	1.6e-09	i	-0.3%	i	0%
O=C1CCCc2c1cc(C(=O)NCc1ccco1)c(=O)n2-c1ccc(Cl)cc1	2.2e-08	i	-0.8%	i	?
Cc1csc(NC(=O)CSc2nnc(-c3ccc(S(=O)(=O)N4CCCC4)cc3)o2)n1	1e-09	i	-0.4%	i	8%
COc1ccc(NC(=O)CC(=O)Nc2ccc(OC)cc2OC)c(OC)c1	1e-09	i	0.0%	i	-7%
O=C(O)CC1CCCC(c2ccccc2)C1=O (stereo not drawn)	1e-09	i	0.1%	i	2%
CCS(=O)(=O)n1nc(-c2ccc(OC)cc2)nc1SC	1.5e-09	i	0.4%	i	.

Five compounds already listed, ordered by formula weight, rising:
SMILES	A647 fluor	A488 autofl	AID923	Resorufin fluor	TSHR ag
CCCCC(CCC(=O)Nc1ccc(C(=O)OCC)cc1)C(=O)O (stereo not drawn)	1.4e-08	i	.	i	.
CCOc1ccc(N2CC(C(=O)NCCCN3CCOCC3)CC2=O)cc1 (stereo not drawn)	1.5e-08	i	3.6%	i	-1%
Cc1ccc(NC(=O)CN(C)S(=O)(=O)c2cccc3nsnc23)cc1	1e-09	i	-0.2%	i	-4%
COc1ccc(OC)c(NC(=O)CSc2nnc(Cn3c(=O)sc4ccccc43)n2C)c1	.	.	2.9%	.	2%
Cn1c(=O)c2c(nc(Oc3ccc4c(c3)OCO4)n2Cc2ccc(Br)cc2)n(C)c1=O	1e-09	i	.	i	.

The listing continues:
SMILES	A647 fluor	A488 autofl	AID923	Resorufin fluor	TSHR ag
COc1ccc(CNc2ncncc2-c2cccc(C#N)c2)c(OC)c1	1e-09	i	4.1%	i	?
CCn1c(SCC(=O)N2CCCc3ccccc32)nnc1-c1c[nH]c2ccccc12	2.6e-08	i	-1.9%	i	11%
CCOC(=O)Cn1c(-c2nonc2NC(=O)c2ccccc2F)nc2ccccc21	.	.	0.1%	.	1%
O=C(Cn1c(N2CCN(c3ccccc3)CC2)nc2ccccc21)c1ccccc1	6.5e-08	i	-3.0%	i	30%
O=C(Nc1cc(NC(=O)c2ccccc2)c(C(=O)O)cc1C(=O)O)c1ccccc1	.	.	-0.8%	.	1%
CCOC(=O)C(NC(=O)c1ccccc1OCC)(Nc1ncccn1)C(F)(F)F (stereo not drawn)	6.6e-09	i	1.0%	i	?
O=C(C1COc2ccccc2O1)N1CCCC1 (stereo not drawn)	.	.	0.7%	.	-1%
COc1ccccc1NC(=O)CSc1nnc(CC(=O)Nc2ccccc2)n1C	3.7e-08	i	-0.6%	i	-8%
CC(C)NC(=O)C1CCN(C(=O)N(C)C)CC1	4.6e-08	i	-1.2%	i	0%
CCOc1c(C#N)c(C#N)c2nc(C)cc(C)n12	1e-09	i	0.2%	i	5%
CCCc1nc2c(o1)CC(CC(C)SCC)CC2=O (stereo not drawn)	.	.	1.2%	.	15%
CC(=O)CC(=O)[C@@]1(O)CC[C@@H]2[C@@H]3C=C(C)C4=CC(=O)CC[C@@H]4[C@H]3CC[C@]21C	3.2e-09	i	0.6%[25.7 µM]	i	1%[25.6 µM]
CCOC(=O)N1CCC(NC(=O)Cn2ncn3c(cc4sc(CC)cc43)c2=O)CC1	2.3e-08	i	-1.1%	i	0%
CCCn1c(C2CC(=O)N(c3cc(OC)ccc3OC)C2)nc2ccccc21 (stereo not drawn)	.	.	-1.8%	.	1%
CC1CCCCN1S(=O)(=O)c1ccc(C(=O)Nc2nnc(-c3ccccc3Cl)o2)cc1 (stereo not drawn)	2.7e-08	i	-0.6%	i	2%
CCN(CC)CCCNc1oc(-c2cccc(Cl)c2)nc1C#N	2.3e-08	i	1.2%	i	-2%
CC1=C(C(=O)OCC(C)C)C(c2cc3c(cc2Br)OCO3)NC(=O)N1C (stereo not drawn)	.	.	-0.7%	.	25%
O=C(c1ccco1)N1CCC(n2nnc3ccccc32)CC1	3e-08	i	1.0%	i	3%
Cc1c(C)n(CC(O)CN2CCOCC2)c2ccccc12 (stereo not drawn)	4.2e-08	i	4.6%	i	3%
O=C(CSc1ccccc1Cl)c1ccco1	1.5e-09	i	-1.6%	i	0%
CCOc1ccccc1N(C(=O)CNC(=O)c1ccco1)C(C(=O)NC(C)(C)C)c1ccncc1 (stereo not drawn)	2.3e-08	i	0.0%	i	14%
COc1cc(-c2cc(=O)c3ccccc3o2)ccc1O	2.3e-09	i	1.6%	i	7%
O=C(CSc1nnc(-c2ccncc2)o1)Nc1ccccc1Cl	2.1e-08	i	-1.3%	i	0%

Entries shown so far that have a CF3 group (3):
SMILES	A647 fluor	A488 autofl	AID923	Resorufin fluor	TSHR ag
Cc1nc(Sc2cccn2C)c(C(F)(F)F)c(=O)[nH]1	2.2e-08	i	.	i	.
O=C(COc1cccc(C(F)(F)F)c1)NCCCN1CCCC1=O	1.2e-09	i	1.5%	i	14%
CCOC(=O)C(NC(=O)c1ccccc1OCC)(Nc1ncccn1)C(F)(F)F (stereo not drawn)	6.6e-09	i	1.0%	i	?

Assay outcomes from PubChem.

An excerpt (hit frequency here may not be typical).
